HSD17B inhib = qHTS Assay for Inhibitors of HSD17B4, hydroxysteroid (17-beta) dehydrogenase 4; recombinant HSD17B10, NADH fluorescence kinetic; many of its hits are not listed in these tables; Potency, µM (doses to about 57.1 µM), for the others: at the top dose activity change, negative = inhibition, usual class: inhibitors; actives 7.6% (n = 75,000); active = well fitted inhibition curve with a large enough effect; inconclusive = small, poorly fitted or top-dose-only effect; inactive = no such curve, though single readings can be large or run the other way;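 also: the protocol describes HADH2 (HSD17B10) and not the HSD17B4 of the title; nearly all actives have a fitted effect of over 70% in size; most hits overshoot -100% by far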
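His-tagged E. coli-expressed HADH2 at 20 nM in 100 mM Tris-HCl pH 9.0 with 0.01 % Tween-20, preincubated 15 min with compound at room temperature. Reaction with 1 mM NAD+ and 90 uM beta-hydroxybutyryl coenzyme A; NADH fluorescence (360/450 nm) read kinetically over 4 min, last minus first point.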
* marks the source's active call; other numbers are inactive results; ? = inconclusive; [ ] = remark or other dose. % is scaled to controls: 0 for no effect and ±100 for the full control effect; potency is read from the fitted curve at half-maximal effect.

SMILES	HSD17B inhib
COC(=O)c1[nH]c2ccccc2c1NC(=O)CN1CCCCCC1	-7%
Cc1ccc(C)c(C(=O)CSc2nnnn2-c2cccnc2)c1	-12%
CCOc1ccc(-c2cc(NC(=O)Cn3ncc4c3-c3ccccc3OC4)on2)cc1OCC	-1%
CO[C@H]1C[C@@H](O[C@@H]2[C@H](C)[C@H](O[C@@H]3O[C@@H](C)C[C@@H](N(C)C)[C@@H]3O)[C@H](C)C[C@]3(CO3)C(=O)[C@H](C)[C@H](O)[C@H](C)[C@H](C)OC(=O)[C@@H]2C)O[C@@H](C)[C@H]1O	7%[25.6 µM]
Cc1ccc2nc(Cc3ccc(N)cc3)oc2c1	-2%
Cc1cc(SCC(=O)N2CCCC2)nc2ccccc12	11%
Cc1cccnc1NC(=O)c1c(O)c2cccc3c2n(c1=O)CCC3	-2%
CC1CCN(CCCNC(=O)C2CCN(S(=O)(=O)N3CCCCC3)CC2)CC1	6%
N#Cc1nc(Cc2cccc3ccccc23)oc1NCc1ccc(F)cc1	-28%
O=C(c1ccco1)N1CCN(C(c2cccs2)c2sc3ncnn3c2O)CC1 (stereo not drawn)	?
COCCN(C(=O)c1csnn1)C(C(=O)NC(C)(C)C)c1cccc(OC)c1 (stereo not drawn)	6%
O=c1cc(-c2c(F)c(F)c(F)c(F)c2F)oc2c(F)c(F)c(F)c(F)c12	-19%
COc1ccccc1N1CCN(CCNC(=O)Nc2cccc(C)c2C)CC1	3%
O/N=C1\CCC\C1=C/c1ccco1	-5%
Cc1cc(C)n2nc(SCC(=O)c3cc(C)n(-c4cc(C)on4)c3C)nc2n1	-3%
COc1ccc(-n2nc(C(=O)NCC(=O)NCC3CCCO3)c3ccccc3c2=O)c(OC)c1 (stereo not drawn)	12%
CCOC(=O)C1CCN(S(=O)(=O)c2cc(Br)cc3c2N(C(C)=O)C(C)C3)CC1 (stereo not drawn)	4%
Cn1c(COc2ccc(Cl)cc2)nnc1SCC(=O)NC1CCCCC1	10%
COc1ccc(NC(=O)C(NS(=O)(=O)c2ccc3c(c2)CCCN3C(C)=O)C(C)C)c(OC)c1 (stereo not drawn)	0%
Cc1ccc(S(=O)(=O)NCCOCCNS(=O)(=O)c2ccc(C)cc2)cc1	-2%
COc1ccc(C(=O)Nc2ccccc2)cc1S(=O)(=O)Nc1cc(C)on1	1%
O=C1c2ccccc2C(Cc2ccnc(F)c2)(Cc2ccnc(F)c2)c2ccccc21	6%
Cn1cc(C(=O)c2ccc(F)cc2)cc1-c1nc2ccccc2n1C	2%
O=C1CN(C(=O)CC2c3ccccc3-c3ccccc32)CC(=O)N1	-2%
CCNCC(O)COCC(O)CNCC (stereo not drawn)	15%
COc1ccc(NC(=O)N(CCN2CCCC2)Cc2cc3cc(OC)c(OC)cc3[nH]c2=O)cc1	?
COC(=O)c1ccc(C(NC(=O)OCc2ccccc2)/C(=C/[C@@H](C)C(=O)NCC2CC2)c2cccnc2)cc1 (stereo partly drawn)	-4%
O=S(=O)(CCN1CCN(C(c2ccccc2)c2ccccc2)CC1)C(F)(F)F	-12%
Cc1ccc(N2C(=O)c3n[nH]c(C)c3C2c2ccco2)cc1 (stereo not drawn)	-3%
c1cc(-n2cnnn2)ccc1NC1=NCCC1	9%
Cc1cc(C)nc(N(C#N)Cc2ccccc2Cl)n1	8%
Cc1cc(C)nc(SCCc2ccncc2)n1	-11%
CCCCCCn1c(NCC)nc2c1c(=O)n(C)c(=O)n2C	8%
COc1ccc2nc(NC(=O)CSc3nnc4n3C(C)(C)Cc3ccccc3-4)sc2c1	2%
CN(Cc1ccco1)c1cc(-c2ccc3c(c2)OCO3)ncn1	32µM*
O=C(CN(CCc1ccccc1)C(=O)CN1C(=O)COc2ccccc21)NCc1ccco1	-5%
Cc1cccc(NS(=O)(=O)c2ccc(Cl)c(C(=O)O)c2)c1	0%
CCN(CC)CCCN(Cc1cc2cc(OC)ccc2[nH]c1=O)C(=O)Nc1ccc(F)cc1	?
CC1=CC(=O)c2ccccc2C1=O	-2%
Clc1ccc(OCc2nn3c(-c4ccco4)nnc3s2)c(Cl)c1	-19%
O[C@H](CNc1ccccn1)c1ccccc1	6%[11.4 µM]
Cc1cnc(NC(=O)CSc2nnc(Cc3ccccc3)o2)s1	2%
ClC1=C(Cl)C(Cl)(Cl)C(Cl)=C1Cl	9%
COC(=O)CSc1nnc2c(C)cc3cc4c(cc3n12)OCCO4	7%
O=C(CSc1nnc(-c2ccc3c(c2)OCCO3)o1)N1CCCC1	0%
O=C(CCCC(=O)N(CC(=O)NC1CCCC1)C1CCCC1)Nc1ccccn1	2%
CCc1ccc(NC(=O)NCCN2CCc3ccccc3C2)cc1	-1%
COc1cc(-c2cc(OC)c3c(C)oc(C)c3c(=O)c2)ccc1O	?
COc1ccc(NCc2nnc(SCC(=O)Nc3cc(C)cc(C)c3)o2)cc1	-2%
COCCNC(=O)c1ccc(NS(C)(=O)=O)cc1	4%

The results go on:
SMILES	HSD17B inhib
CC(CN1CCCCC1)OC(=O)c1ccc(Cl)cc1 (stereo not drawn)	4%
CC(C)=CCC/C(C)=C/CO/N=C1/C[C@@H](O)[C@@H](O)[C@@H]2[C@H]3C(=O)N(c4ccc(F)cc4F)C(=O)[C@@H]3CC[C@H]12	-3%[11.4 µM]
Cc1ccc(N2C(=O)c3ccc(C(=O)N4CCN(c5ccccc5F)CC4)cc3C2=O)cc1	12%
O=C(CCC1CCCCC1)N1CCN(Cc2ccc3c(c2)OCO3)CC1	3%
CSc1cccc(NC(=O)c2ccco2)c1	4%
CC(C)n1c(N2CCN(CC(=O)Nc3ccc4c(c3)OCCO4)CC2)nc2ccccc21	-7%
Cc1nc2cnc(Oc3cccc(Cl)c3)nc2n(C[C@H]2CCCO2)c1=O	2%
COc1ccc(OC)c(NC(=O)C2C3CCC(C3=C(C)C)C2C(=O)O)c1 (stereo not drawn)	-11%
CC(C)Oc1ccc2c3c(c(=O)oc2c1)CCC3	32µM*
COc1nc(OC)nc(N2CCC(NC(=O)C(Cc3ccc(C(C)C)cc3)NC(C)=O)CC2)n1 (stereo not drawn)	6%

Continued, overlapping the part above by 4 compounds.
SMILES	HSD17B inhib
Cc1nc2cnc(Oc3cccc(Cl)c3)nc2n(C[C@H]2CCCO2)c1=O	2%
COc1ccc(OC)c(NC(=O)C2C3CCC(C3=C(C)C)C2C(=O)O)c1 (stereo not drawn)	-11%
CC(C)Oc1ccc2c3c(c(=O)oc2c1)CCC3	32µM*
COc1nc(OC)nc(N2CCC(NC(=O)C(Cc3ccc(C(C)C)cc3)NC(C)=O)CC2)n1 (stereo not drawn)	6%
[O-][N+]1=c2ccc(Nc3ccccc3)cc2=NC12CCCCC2	?
O=C1[C@H]2[C@H]3[C@H](O)[C@H](O)C/C(=N/OCc4ccccc4)[C@@H]3CC[C@@H]2C(=O)N1C1CCCCC1	2%[11.4 µM]
CCOC(=O)N1CCN(C(=O)C(C)N(c2ccc(Oc3ccccc3)cc2)S(C)(=O)=O)CC1 (stereo not drawn)	8%
Cc1ccc(-n2nnnc2SCC(=O)c2cc(C)n(CC3CCCO3)c2C)cc1 (stereo not drawn)	-1%
Cc1ccc(C)c(Cc2c(C)nc3c(C(=O)N4CCOCC4)cnn3c2C)c1	32µM*
CCn1c(=O)cc(SCC(=O)NCc2ccc3c(c2)OCO3)c2ccccc21	1%
C=C(C)CSc1nnc(CCNC(=O)OC(C)(C)C)o1	8%
COc1ccc(C(C)=O)cc1COC(=O)c1cnc(C)cn1	-9%
Cc1cc(C)n(C(CC(=O)O)C(=O)O)n1 (stereo not drawn)	-1%
CC1Cc2ccccc2N1C(=O)c1cc2c(=O)n3ccccc3nc2n1C (stereo not drawn)	?
Cc1ccc(-c2cn(S(=O)(=O)c3cccc4nsnc34)nc2N)cc1	-10%
COc1ccc(CNc2cc(C)nc3ncnn23)c(OC)c1	6%
CCC1=C2CC[C@H]3C(=O)N(c4ccccc4)C(=O)[C@H]3[C@H]2[C@@]2(C)C(=O)N(CC(=O)OC)C(=O)N2C1=O	-5%
CC1CCN(C(=O)c2ccc3c(c2)OCCO3)CC1	4%
Cc1cc(/C=C(/C#N)c2cccc(F)c2)c(C)n1-c1cccnc1	-8%
CCn1nc(NC(=O)c2ccncc2)c2cc3cccc(C)c3nc21	-4%
O=C(CSc1n[nH]c(-c2ccncc2)n1)Nc1ccccn1	4%
Cc1cc(-c2ccco2)n(CC(=O)O)n1	4%
Cn1c(CN2CCOCC2)nc2cc(NC(=O)c3ccc(F)cc3)ccc21	0%
Cn1c(=O)[nH]c(=O)c2c1nc(N1CCCCCC1)n2Cc1cccc2ccccc12	-1%
COc1ncc2nc(-c3cc(F)cc(F)c3)c(=O)n(C[C@H]3CCCO3)c2n1	?
O=C(c1ccc(Cl)cc1)c1ccccc1C(=O)N1CCOCC1	-1%
COC(=O)c1ccc(C23CC2(C(NP(=O)(c2ccccc2)c2ccccc2)c2ccccc2)C3)cc1 (stereo not drawn)	-23%
O=C1NC(c2ccncc2)Nc2sc3c(c21)CCCC3 (stereo not drawn)	?
COc1ccccc1CNC(=O)C(NC(=O)C1CCCCC1)C(C)C (stereo not drawn)	2%
O=C(c1csc2ccccc12)N1CCCCCC1	-6%
c1ccc2c(c1)Cn1nnnc1-2	17%
CSc1nnc2c3c4c(sc3nc(-n3nc(C)cc3C)n12)COC(C)(C)C4	25µM*
CCOC(=O)Cc1cc(=O)n2[nH]c(C)cc2n1	8%
CCSc1nc(O)c(CC)c(=O)n1C(C)CC (stereo not drawn)	-5%
Cc1ccc(S(=O)(=O)NCCCCCC(=O)NC(C)(C)CO)cc1	0%
CCOC(=O)c1sc(Nc2nc3c(OC)cccc3s2)nc1C	40µM*
COc1ccc(CNC(=O)c2ccc(=O)oc2)cc1OC	149%[activator]
O=C1CC(c2ccc(F)c(Br)c2)C2=C(CCCC2=O)N1 (stereo not drawn)	7%
Cc1nn(-c2ccc(F)cc2)c2sc(C(=O)N3CCCCCC3)cc12	32%[activator]
CCOC(=O)c1ccccc1Nc1cc(C)nc2nc(C)nn12	-6%
COc1cc2c(cc1OC)[C@H](c1ccccc1)CN(C)CC2	-4%
CCCn1c(SCC(=O)Nc2nc3c(s2)CCCC3)nc2c1c(=O)n(C)c(=O)n2C	12%
O=C(CNC(=O)c1cc2ccccc2o1)NCc1cccs1	7%
Cn1c(=O)c2c(ncn2CCSS(=O)(=O)O)n(C)c1=O	3%[11.4 µM]
Cc1ccc(C(=O)NC2CC(C)(C)NC(C)(C)C2)c(C)c1	2%
Cc1cc(NC(=O)CN2CCN(c3ncccn3)CC2)no1	-7%
CCn1cc(C(=O)Nc2ccc(-n3cnnn3)c(OC)c2)c(=O)c2ccc(C)nc21	15%
COc1ccc(CCNC(=O)CCCn2c(SCC#N)nc3ccccc3c2=O)cc1OC	27%
O=C(Nc1ccc(F)cc1F)c1cccnc1	9%
O=C(NCc1cccnc1)c1noc2c1CCCCC2	6%
Cc1ccc(C(O)c2nc3ccccc3n2C(C)C)cc1 (stereo not drawn)	7%
Cc1cc(=O)c2c(C)nn(-c3ccccc3)c2[nH]1	-9%
Nc1nc(N)nc(CCCc2nc(N)nc(N)n2)n1	5%[11.4 µM]
O=C(NC1CCN(C(=O)N2c3ccccc3Sc3ccccc32)CC1)c1ccco1	6%

Other records
SMILES	HSD17B inhib
CS(=O)(=O)N(CCc1ccccc1)CC(=O)N1CCN(Cc2ccc3c(c2)OCO3)CC1	11%
C=CCn1c(N)cc(=O)nc1SCC(=O)Nc1ccccc1	0%
CC(CCc1ccccc1)NCc1ccncc1 (stereo not drawn)	6%
CSc1nnc2c(n1)OC(C1CC=C(C)CC1)Nc1ccccc1-2 (stereo not drawn)	-5%
COc1ccc2c(=O)c(N3C(=O)c4ccccc4C3=O)c(C)oc2c1	13%
C=CCOc1ccc(C2N3CC4(CC)CN2CC(CC)(C3)C4=O)cc1 (stereo not drawn)	-2%
CCOc1ccc(-c2cn(CCC#N)cn2)cc1	-5%
CCCN(CCC)Cc1c(C(=O)OCC)nnn1-c1nonc1N	-4%
O=C(NCCc1ccc2c(c1)OCO2)C1CCN(S(=O)(=O)c2ccc(Cl)cc2)CC1	-2%
NC(=O)c1nc(N2CCOCC2)nc(N2CCOCC2)n1	-3%

4 of these compounds, reformatted.
Compound: CC(CCc1ccccc1)NCc1ccncc1 (stereo not drawn)
  HSD17B inhib: 6%
Compound: NC(=O)c1nc(N2CCOCC2)nc(N2CCOCC2)n1
  HSD17B inhib: -3%
Compound: C=CCn1c(N)cc(=O)nc1SCC(=O)Nc1ccccc1
  HSD17B inhib: 0%
Compound: CCCN(CCC)Cc1c(C(=O)OCC)nnn1-c1nonc1N
  HSD17B inhib: -4%

Returning to the listing, repeating the two entries before the break.
SMILES	HSD17B inhib
O=C(NCCc1ccc2c(c1)OCO2)C1CCN(S(=O)(=O)c2ccc(Cl)cc2)CC1	-2%
NC(=O)c1nc(N2CCOCC2)nc(N2CCOCC2)n1	-3%
O=C(Nc1ccc2ccccc2c1)c1cnccn1	-28%
COc1ccc2cc3cc(C(=O)NCCCN4CCOCC4)oc3nc2c1	25µM*
O=C(c1ccco1)N(CCCN1CCOCC1)c1nc(-c2ccc(F)cc2)cs1	-13%
COc1ccc(-c2cc(C(=O)NC(C)C)no2)cc1	0%
COC(=O)C(NC(=O)c1ccccc1)=C1C=C(C)OC(C)=C1	-12%
COc1ccccc1-n1cnc(N)c1C(=O)c1ccccc1	0%
CCOC(=O)c1cc(C#N)c(NCc2ccccc2)nc1C	10µM*
O=C1c2ccccc2C(=O)N1Cc1nc2ccccc2o1	2%
CS(=O)(=O)c1ccc2nc(N)sc2c1	-24%
COc1ccccc1-n1c(SCC(=O)Nc2ccccc2C)nc(O)cc1=O	-11%

High-throughput results: PubChem, National Center for Advancing Translational Sciences (NCATS)

An excerpt (hit frequency here may not be typical).
